# FPR binding – small-molecule ligands of human FPR – U937-FPR cells, fMLFK-FITC, flow cytometry, primary screen (AID 362); U937-FPR cells, fMLFK-FITC displacement, flow cytometry; stronger effect = higher value; test concentration not given here; most inactive calls were filed without a number and no value below 0 was filed; inhibition, %; 1% of 4,300 active;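 active = inhibition of labelled peptide binding to the formyl peptide receptor of at least 65%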;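 also: plate controls were buffer control wells for no effect and unlabeled fMLFF blocking peptide for full effect; higher means less cell fluorescence so more probe displaced; part of the set was picked by virtual screening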
# * = called active by the depositor; i = inactive. This is a subset, so the mix of outcomes need not match the whole.
Molecule	FPR binding
O=C(O)COc1cc2oc(=O)c3c(c2cc1Cl)CCCC3	i
CCCCN(CC)C(=O)c1sc2ncn(Cc3ccccc3F)c(=O)c2c1C	i
CCOC(=O)c1c(NC(=O)C2C3CCC(C3)C2C(=O)O)sc(C)c1-c1ccc(C(C)(C)C)cc1 (centres undefined)	64
CCCCn1c(SCC(N)=O)nc2ccc(N3CCOCC3)cc2c1=O	i
COC(=O)C1C(=O)C2=C(CC1C)NC(C)=C(C(=O)OC1CCCC1)C2c1ccc(F)cc1 (centres undefined)	i
CC(C)(C)c1cc(NS(=O)(=O)c2ccc([N+](=O)[O-])cc2)cc(C(C)(C)C)c1O	68*
COc1cc2c(C(=O)NCc3cccnc3)cn(CC(C)C)c(=O)c2cc1OC	i
CCOc1ccc(C2C(C(=O)OC(C)C)=C(C)NC3=C2C(=O)C(C(=O)OC)C(C)C3)cc1OC (centres undefined)	34
CCOC(=O)C1C(=O)C=C(c2cccc(OC)c2)CC1c1ccc(OC)cc1 (centres undefined)	i
COc1ccc(Sc2ccc(C(=O)N3CCCC(C)C3)cc2[N+](=O)[O-])cc1 (centres undefined)	1
CCSCCOC(=O)C1=C(C)NC2=C(C(=O)C(C(=O)OC)C(C)C2)C1c1cc2c(cc1Br)OCO2 (centres undefined)	i
CC1=C(C#N)c2nc(N)c(C#N)c(C)c2/C1=C\c1ccc(-c2cccc([N+](=O)[O-])c2)o1	5

# (next part)
Molecule	FPR binding
CCOC(=O)CSc1ccc(C(=O)N2CC(C)CC(C)C2)cc1[N+](=O)[O-] (centres undefined)	i
COC(=O)C1C(=O)C2=C(CC1C)NC(C)=C(C(=O)OC(C)C)C2c1cccc(OC)c1OC (centres undefined)	4
CC(C)Cn1cc(C(=O)N2CCN(c3ccc(F)cc3)CC2)c2c3ccccc3n(C)c2c1=O	i
CCCC1=C(C(=O)OCC)C(c2ccccc2Cl)C(C#N)=C(SC)N1 (centres undefined)	4
CCC(=O)Oc1ccc2c(=O)c(Oc3cc(C)cc(C)c3)c(C(F)(F)F)oc2c1	31
CCCCCOC(=O)C1=C(C)NC(=O)NC1c1ccc(OC)c(OC)c1 (centres undefined)	6
COC(=O)C1C(=O)C2=C(CC1C)NC(C)=C(C(=O)OC(C)C)C2c1ccc(OC)c(OC)c1 (centres undefined)	5
CC1(C)C2([N+](=O)[O-])CN3CC1([N+](=O)[O-])CN(C2)C3c1cc(Br)ccc1O (centres undefined)	i
CC1CCN(S(=O)(=O)N2CCC(C(=O)NCc3ccc(F)cc3)CC2)CC1	i
CCSCCOC(=O)C1=C(C)NC2=C(C(=O)C(C(=O)OC)C(C)C2)C1c1cc(OC)c(OC)cc1OC (centres undefined)	33
COc1ccc(C2(CNC(=O)c3ccco3)CCOCC2)cc1	i
O=[N+]([O-])c1ccc2c(c1)C=C1CCCCC1(NCc1ccccc1)O2 (centres undefined)	i

# Continued.
Molecule	FPR binding
CCCCCn1c(SCC(=O)OCC)nc2cc(C(=O)NCCC3=CCCCC3)ccc2c1=O	7
CCOC(=O)c1sc(NC(=O)C(CC(C)C)N2C(=O)c3ccccc3C2=O)c(C(=O)OCC)c1C (centres undefined)	i
CCOC(=O)C1=C(C(F)(F)F)Nc2ncnn2C1c1ccc(OC)c(OC)c1OC (centres undefined)	i
CC(C)c1ccc(NC(=O)C(c2cc3c(cc2[N+](=O)[O-])OCO3)N2CCCCC2)cc1 (centres undefined)	15
CC1CCCN(C(C(=O)NC2CCCC2)c2cc3c(cc2[N+](=O)[O-])OCO3)C1 (centres undefined)	i
O=C1C2=C(c3cc(O)ccc3OCc3ccccc3)CCCN2C(=O)CN1CCc1ccccc1	18
COc1cc(CN2CCN(C3CCCC(C)C3)CC2)cc(OC)c1OC (centres undefined)	i
COC(=O)C1=NNC(C(=O)OC)=C2COC3(CCCCC3)OCC12 (centres undefined)	23
CC(=O)N1c2ccc(S(=O)(=O)NC3CCCCC3C)cc2CC1C (centres undefined)	i
Cc1cc(C)c(S(=O)(=O)NCC2CCC(C(=O)NCCCSC3CCCCC3)CC2)c(C)c1 (centres undefined)	i
Cc1cccc(N2CCN(C(=O)C3CCC(CNS(=O)(=O)c4ccc(Br)s4)CC3)CC2)c1C (centres undefined)	i
Cc1ccc(NC(=O)CSC2=C(C#N)C3(CCCCC3)C(C#N)C(=O)N2)c(C)c1 (centres undefined)	8

# 3 compounds out of the list, ordered by heavy-atom count, rising:
Molecule	FPR binding
CCOC(=O)C1=C(C(F)(F)F)Nc2ncnn2C1c1ccc(OC)c(OC)c1OC (centres undefined)	i
CC(C)c1ccc(NC(=O)C(c2cc3c(cc2[N+](=O)[O-])OCO3)N2CCCCC2)cc1 (centres undefined)	15
O=C1C2=C(c3cc(O)ccc3OCc3ccccc3)CCCN2C(=O)CN1CCc1ccccc1	18

# Further results follow:
Molecule	FPR binding
N=c1c(C(=O)NCCc2ccccc2)cc2c(=O)n3ccccc3nc2n1C1CCCC1	i
CCCCOc1ccc(C(=O)N=c2c(C(=O)OCC)cc3c(=O)n4ccccc4nc3n2CC(C)C)cc1	i
COC(=O)C1C(=O)C2=C(CC1C)NC(C)=C(C(=O)OC1CCCC1)C2c1ccc(Cl)cc1 (centres undefined)	i
Cc1nn(C)c(C)c1/C=C1\CCC/C(=C\c2c(C)nn(C)c2C)C1=O	i
O=C(CSc1c2c(nc3ccccc13)CCCC2)Nc1ccc(Oc2ccccc2)cc1	i
CCSCCOC(=O)C1=C(C)NC2=C(C(=O)C(C(=O)OC)C(C)C2)C1c1cccc2ccccc12 (centres undefined)	20
CCCOc1ccc(C2(C(=O)O)CCCC2)cc1	i
COC(=O)C1C(=O)C2=C(CC1C)NC(C)=C(C(=O)OC1CCCCC1)C2c1ccccc1OC(C)C (centres undefined)	i
CCCCCn1c(SCC(=O)OCC)nc2cc(C(=O)NCc3cccc(Cl)c3)ccc2c1=O	i
COc1ccccc1C1CC(=O)C2=C(C1)NC(C)=C(C(=O)OC1CCCC1)C2c1ccc(OC)c(OC)c1OC (centres undefined)	i
COc1ccccc1-c1c(C(F)(F)F)oc2c(CN3CCCCC3)c(O)ccc2c1=O	i
CC(C)C(Nc1ncnc2ccccc12)C(=O)O (centres undefined)	i

# Further results follow.
Molecule	FPR binding
COc1ccc(C(O)(c2ccc(OC)cc2)c2ccccc2N2CCCCC2)cc1	i
COc1cccc(CCNc2ccc(N3C(=O)C4C5C=CC(C5)C4C3=O)cc2[N+](=O)[O-])c1 (centres undefined)	i
O=C(O)CCC(CNS(=O)(=O)c1ccc(F)cc1)C(F)(F)F (centres undefined)	i
CCOc1ccc(NS(=O)(=O)c2ccc3c(c2)[C@H]2C=CC[C@H]2[C@@H](c2cccc([N+](=O)[O-])c2)N3)cc1	i
CC(=O)Nc1ccc(S(=O)(=O)N2CCCC(CO)C2)cc1 (centres undefined)	i
CC1=C(C(=O)OCC(C)C)C(c2ccc(O)cc2)C2=C(CC(c3cccs3)CC2=O)N1 (centres undefined)	16
CCOc1ccc(/C=C2/CCC/C(=C\c3ccc(OCC)c(OC)c3)C2=O)cc1OC	i
CCOC(=O)Oc1ccc2c(=O)c(-c3ccccc3OC)c(C(F)(F)F)oc2c1	37
CCCCN(CC)C(=O)c1sc2nc(C)nc(N3CCOCC3)c2c1C	i
CCCCc1c(C)nc2c(OC)cccc2c1SCCC(=O)O	i
COc1ccc(C2(CNC(=O)CC(c3ccccc3)c3ccccc3)CCCC2)cc1OC	21
CC(C)CCNC(=O)CSc1nc2ccsc2c(=O)n1CCCCCC(=O)O	i

# Next section:
SMILES | FPR binding
CCOC(=O)CSc1nc2cc3c(cc2c(=O)n1CCCCCC(=O)NCCc1ccc(OC)c(OC)c1)OCO3 | 6
COCCNc1c2c(c(C#N)c3nc4ccccc4n13)CCC2 | i
COc1ccc(N2COc3ccc4c5c(c(=O)oc4c3C2)CCC5)cc1 | i
CCOC(=O)c1c(NC(=O)CC)sc2c1CCCC2O (centres undefined) | 33
C=CCc1c(O)c(CC)cc2c(C)cc(=O)oc12 | i
COc1cc2c(C(=O)N3CCN(c4ccccc4)CC3)cn(CC(C)C)c(=O)c2cc1OC | i
CCCc1ccc(Oc2c(C(F)(F)F)oc3c(C)c(OC(C)=O)ccc3c2=O)cc1 | 20
CCCCC(Sc1nc2cc3c(cc2c(=O)n1CCCC(=O)NCc1ccc2c(c1)OCO2)OCO3)C(=O)OCC (centres undefined) | 2
COc1cc(C2C3=C(CC(C)(C)CC3=O)OC3=C2C(=O)CC(C)(C)C3)ccc1OCC(=O)O | i
COc1ccc(C2NC(=O)N(C)C(C)=C2C(=O)OC2CCCCCC2)cc1 (centres undefined) | i
COc1ccc(C2C(C(=O)Nc3cccc(C)n3)c3ccccc3C(=O)N2C2CCCCC2)cc1 (centres undefined) | i
C/C=C/COC(=O)C1=C(C)NC(=O)NC1c1cc(Cl)c(O)c(OC)c1 (centres undefined) | i
O=C(CSc1nc2ccccc2c(=O)n1CC1CCC(C(=O)N2CCN(c3ccccc3)CC2)CC1)NC1CCCC1 (centres undefined) | i
CCCCSc1nc2c(c(=O)n1C1CCOC(C)(C)C1)C1(CCCC1)Cc1ccccc1-2 (centres undefined) | i
COc1cc(Nc2c3c(nc4cc(Cl)ccc24)CCCC3)cc(OC)c1OC | i

# 4 compounds drawn at random from those above, as already listed:
SMILES | FPR binding
COc1cc(Nc2c3c(nc4cc(Cl)ccc24)CCCC3)cc(OC)c1OC | i
COc1cc(C2C3=C(CC(C)(C)CC3=O)OC3=C2C(=O)CC(C)(C)C3)ccc1OCC(=O)O | i
CCOC(=O)c1c(NC(=O)CC)sc2c1CCCC2O (centres undefined) | 33
COc1ccc(C2NC(=O)N(C)C(C)=C2C(=O)OC2CCCCCC2)cc1 (centres undefined) | i

# Next section:
SMILES | FPR binding
COC(=O)C1C(=O)C2=C(CC1C)NC(C)=C(C(=O)OC1CCCCC1)C2c1ccccc1F (centres undefined) | i
CCCCNC(=O)CSc1c2c(nc3ccccc13)CCCC2 | i
C=CCNC(=O)c1cc2c(=O)n3ccccc3nc2n(C2CCCCC2)c1=N | i
CC(=O)N1CCc2cc(S(=O)(=O)NC(C(=O)NC(C)CCc3ccccc3)C(C)C)ccc21 (centres undefined) | i
COc1cc(C2NC(=O)NC(C)=C2C(=O)OC(C)C(C)(C)C)cc(Cl)c1O (centres undefined) | i
O=c1oc2cc(O)cc(O)c2c2c1CCC2 | 82*
CC1=C(C(=O)OC2CCCCCC2)C(c2ccc([N+](=O)[O-])cc2)NC(=O)N1C (centres undefined) | i
CC(C)C(NC(=O)COc1ccccc1)C(=O)O (centres undefined) | i
COc1cc(C2C3=C(CC(C)(C)CC3=O)OC3=C2C(=O)CC(C)(C)C3)ccc1OC(=O)c1ccc(Cl)cc1 | i
CCC(C)NC(=O)CC(NS(=O)(=O)c1ccc(OC)cc1)C(C)C (centres undefined) | i
CCCCOc1ccc2c(=O)c(Oc3cccc(C)c3)c(C(F)(F)F)oc2c1 | i
NC(=O)CSc1nc(-c2ccccc2)nc2c1CCCC2 | i
CC(C)Cn1cc(C(=O)N2CCN(C(=O)c3ccco3)CC2)c2c3ccccc3n(C)c2c1=O | 4
COC(=O)C1C(=O)C2=C(CC1C)NC(C)=C(C(=O)OC1CCCC1)C2c1cccc(F)c1 (centres undefined) | i
CCOc1ccc(CCNC(=O)c2cn(CC(C)C)c(=O)c3cc(OC)c(OC)cc23)cc1OCC | i

# Additional results.
SMILES | FPR binding
CCOC(=O)C1=C(C)NC2=C(C(=O)C(C(=O)OC)C(C)C2)C1c1cc(Br)c(OC)c(OC)c1 (centres undefined) | i
CCN(CC)C(=O)c1cn(CC(C)C)c(=O)c2cc(OC)c(OC)cc12 | i
COc1ccc(C2(CNC(=O)c3ccc(Br)o3)CCOCC2)cc1 | 3
CC1(C)CC(=O)C2=C(C1)OC(N)=C(C#N)C21CCCCC1 | i
COCCOC(=O)C1=C(C)NC2=C(C(=O)C(C(=O)OC)C(C)C2)C1c1ccc(OC)c(O)c1 (centres undefined) | 18
COc1cc2c(cc1OC)C(C(=O)N1CCCCCC1)C1c3ccccc3CCN1C2=O (centres undefined) | i
CCCCn1c(=NC(=O)c2ccc(OC)c(OC)c2)c(C(=O)OCC)cc2c(=O)n3ccccc3nc21 | 19
CCOc1ccc(C2C(C(=O)OC3CCCCC3)=C(C)NC3=C2C(=O)CC(C)(C)C3)cc1OC (centres undefined) | 40
N#CCCOC1(C#CCN2CCOCC2)CCCCC1 | i
CCOc1cc(C2NC(=O)NC(C)=C2C(=O)OC2CCCCCC2)ccc1O (centres undefined) | i
COc1ccc(C2(CNC(=O)c3ccccc3[N+](=O)[O-])CCCC2)cc1OC | i
CCCOC(=O)C1=C(C)NC2=C(C(=O)C(C(=O)OC)C(C)C2)C1c1ccc(O)c(OCC)c1 (centres undefined) | 14
CCOC(=O)c1cc2c(=O)n3ccccc3nc2n(CC(C)C)c1=NC(=O)c1ccccc1OCC | i
COc1ccc(C2C3=C(CC(C)(C)CC3=O)OC3=C2C(=O)CC(C)(C)C3)cc1COc1ccc(F)cc1 | i

# By substructure, the entries above containing a cyano group.
SMILES | FPR binding
CC1=C(C#N)c2nc(N)c(C#N)c(C)c2/C1=C\c1ccc(-c2cccc([N+](=O)[O-])c2)o1 | 5
CCCC1=C(C(=O)OCC)C(c2ccccc2Cl)C(C#N)=C(SC)N1 (centres undefined) | 4
Cc1ccc(NC(=O)CSC2=C(C#N)C3(CCCCC3)C(C#N)C(=O)N2)c(C)c1 (centres undefined) | 8
COCCNc1c2c(c(C#N)c3nc4ccccc4n13)CCC2 | i
CC1(C)CC(=O)C2=C(C1)OC(N)=C(C#N)C21CCCCC1 | i
N#CCCOC1(C#CCN2CCOCC2)CCCCC1 | i

# Screens (PubChem)
